# DT40 TDP1 CPT = qHTS for Inhibitors of human tyrosyl-DNA phosphodiesterase 1 (TDP1): qHTS in cells in presence of CPT; chicken DT40 Tdp1-/-;hTDP1 cells + 20 nM CPT, ATP luminescence, 48 h; Potency, µM (highest dose often 46.2 µM), inactives show top-dose activity change, negative = growth inhibition, usual class: inhibitors; 12% of 420,000 active; note: nearly all actives have a fitted effect of over 55% in size
#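 Chicken DT40 Tdp1-/- cells stably complemented with human TDP1 were seeded at 400 cells/well in medium containing 20 nM camptothecin, exposed to pin-transferred compounds, and grown at 37 °C for at least 48 hr. Viability was read as ATP luminescence.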
# GCN5L2 inh = qHTS Assay for Inhibitors of GCN5L2; 0.21% of 390,000 active; GCN5L2 HAT assay, ThioGlo1 CoA-SH fluorescence; Potency, µM (highest dose often 58.9 µM), without a hit: at the top dose activity change, negative = inhibition, actives largely listed as inhibitors
# Target sequence (Q92830 whole entry, looked up): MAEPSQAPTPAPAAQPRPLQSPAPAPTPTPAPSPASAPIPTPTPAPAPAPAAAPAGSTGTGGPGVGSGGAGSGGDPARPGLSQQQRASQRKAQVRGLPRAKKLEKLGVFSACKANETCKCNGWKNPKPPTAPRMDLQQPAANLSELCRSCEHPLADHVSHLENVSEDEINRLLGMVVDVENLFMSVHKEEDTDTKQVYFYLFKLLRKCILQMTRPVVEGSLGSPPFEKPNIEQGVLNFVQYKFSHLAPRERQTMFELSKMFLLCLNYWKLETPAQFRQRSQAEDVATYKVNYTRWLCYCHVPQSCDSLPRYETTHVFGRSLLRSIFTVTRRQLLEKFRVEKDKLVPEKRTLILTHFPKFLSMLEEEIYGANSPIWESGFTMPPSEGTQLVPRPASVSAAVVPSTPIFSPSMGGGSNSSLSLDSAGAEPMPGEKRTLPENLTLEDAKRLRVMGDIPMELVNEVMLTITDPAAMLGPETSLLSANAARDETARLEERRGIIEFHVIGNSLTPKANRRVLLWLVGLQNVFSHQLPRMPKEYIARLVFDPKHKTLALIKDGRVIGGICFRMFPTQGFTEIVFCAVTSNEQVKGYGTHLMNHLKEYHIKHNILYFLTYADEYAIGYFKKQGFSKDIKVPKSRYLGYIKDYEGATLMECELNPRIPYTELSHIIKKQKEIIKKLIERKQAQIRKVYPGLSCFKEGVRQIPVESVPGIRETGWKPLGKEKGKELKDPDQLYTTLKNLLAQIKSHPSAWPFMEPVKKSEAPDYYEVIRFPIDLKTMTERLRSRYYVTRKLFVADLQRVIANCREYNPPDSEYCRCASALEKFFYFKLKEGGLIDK
#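 Free CoA generated was detected with ThioGlo1 (50uM) fluorescence at Ex340nm/Em540nm, read immediately and after 20 min at room temperature. Enzyme, 20 nM in HEPES pH 7.5 buffer, saw compounds 15 min before adding 75uM H3(1-25) peptide and 70uM acetyl-CoA.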
# Starred values were filed as active, the others as inactive; ? = inconclusive; / = not tested or not shown; & = joins results of further samples. Calls come from the whole dose curve; as a rule, active = well fitted curve in the direction sought with a large enough effect; inconclusive = small, poorly fitted or top-dose-only effect, or another doubt; inactive = no such curve, though single readings can be large; an effect the other way counts as inactive or inconclusive. % is set by controls: 0 for no effect and ±100 for the full control effect; potency is the fitted concentration of half-maximal effect.
# Below each compound – DT40 TDP1 CPT	GCN5L2 inh
1. CCCCCCC1/C(=N\NC(=O)c2ccccc2)CCC1C(=O)OC (stereo unspecified)
  ?	-5%
2. FC(F)(F)c1ccc(-n2ccnc2)nc1
  5%	-3%
3. COc1ccc(N(Cc2cc3cc(OC)ccc3[nH]c2=O)S(=O)(=O)c2ccc(NC(C)=O)cc2)cc1
  16µM*	-19%
4. N#C/C(=C\c1ccc(Cl)cc1Cl)c1n[nH]c(Cn2cncn2)n1
  -16%	-4%
5. COc1ccc(C(=O)COC(=O)CNC(=O)c2ccc(C)s2)c(OC)c1
  8%	-15%
6. O=C(COC(=O)c1ccc2c(c1)OCCO2)Nc1ccc(F)cc1F
  2%	-5%
7. CC(=O)Oc1ccc2c(c1)c(C(C)=O)c(C)n2C
  -4%	-3%
8. CC(C)(C)NNC(=S)Nc1cccc(C(F)(F)F)c1
  3.3µM*	3%
9. OCCN=C1CCCc2c1[nH]c1ccc(Cl)cc21
  11%	-4%
10. O=C(CCNS(=O)(=O)c1ccc(Cl)cc1)OCC(=O)c1ccc[nH]1
  10%	-4%
11. Cc1ccccc1Cn1nc(C)c(NC(=O)c2cc(CC(C)C)on2)c1C
  ?	-14%&-5%
12. OCc1nc2ccccc2n1CCCOc1ccccc1
  -4%	-19%
13. Cc1nc(NC(=O)COC(=O)CCc2nc3ccccc3s2)c(Cl)cc1Cl
  -13%	0%
14. CCOc1ccc(OCCC(=O)OCC(=O)NCc2ccc(Cl)cc2)cc1
  10%	-9%
15. Nc1ccc(C(=O)OCC(=O)N2CCOCC2)cc1[N+](=O)[O-]
  -2%	-12%
16. COc1ccc(S(=O)(=O)N2CCCC(N(C)CCc3ccccc3)C2)cc1OC (stereo unspecified)
  ?	-7%
17. C[C@H](NS(=O)(=O)c1ccc(Cl)c(Cl)c1)C(=O)OCc1cc(=O)n2cc(Br)ccc2n1
  6%	-4%
18. Cc1cc(NS(=O)(=O)c2ccccc2)n(-c2ccccc2)n1
  -20%	-5%
19. CC12CCC(C(=O)NCc3ccc4c(c3)OCO4)(C(=O)C1=O)C2(C)C (stereo unspecified)
  -24%	-2%
20. CC(Sc1nnc2c(n1)C1CCC2(C)C1(C)C)C(=O)Nc1ccccc1 (stereo unspecified)
  ?	-5%
21. CCCCN(C)CCCNC(=O)/C=C1\Sc2ccccc2NC1=O
  -9%	-1%
22. CCCn1c(SCc2nc3ccccc3s2)n[nH]c1=O
  12%	-4%
23. Cc1cc(C)cc(C(=O)NC(CC(N)=O)c2ccc(N3CCC(Br)CC3)c([N+](=O)[O-])c2)c1 (stereo unspecified)
  ?	-8%
24. O=C(NCC1CCCO1)c1ccc(Cl)c(S(=O)(=O)N2CCOCC2)c1 (stereo unspecified)
  6%	-2%
25. CSc1nc(-c2ccco2)nn1C(=O)c1ccc(C)cc1
  -7%	0%
26. COc1ccc(NC(=O)NC23CC4CC(CC(C4)C2)C3)cc1OC
  -18%	-26%
27. COc1ccc(NC(=S)N(CCN2CCOCC2)C2CCN(C(C)=O)CC2)cc1Cl
  14%	-7%
28. COc1cc(C(=O)N2CCN(S(=O)(=O)c3ccc(F)cc3)CC2)cc(OC)c1OC
  3%	1%
29. CCOC(=O)c1cc(NC(=O)c2ccccc2)c(=O)oc1C(F)(F)F
  3%	-14%
30. C/C(=C\C(=O)c1ccc(C)cc1)NCc1ccc(F)cc1
  2%	/
31. O=C(Nc1cccc2c1CCCC2)c1cccc(F)c1
  -28%	-10%
32. CCN(CC)S(=O)(=O)c1ccc(NS(=O)(=O)CC23CCC(CC2=O)C3(C)C)cc1 (stereo unspecified)
  ?	1%
33. O=C(Cn1c2c(c(=O)n3ncnc13)CCC2)N/N=C/c1cccs1
  -4%	-4%
34. CN1CCC(=NNC(=O)c2cc(-c3ccc(Cl)cc3)n[nH]2)CC1
  1%	-3%
35. Cn1c(=O)c2c(ncn2CC(=O)N/N=C/c2ccco2)n(C)c1=O
  1%	-11%
36. O=S(=O)(NCc1ccc(Cl)cc1Cl)c1ccc(N2CCOCC2)nc1
  -2%	-2%
37. CNc1ccccc1C(C)(C)c1cc(-c2cccc(OC)c2)no1
  4.6µM*	-11%
38. Cn1cc(C(=O)NS(=O)(=O)Nc2ccc(Br)cc2)c2ccccc21
  10%	-3%
39. Cc1cc(NC(=O)Nc2ccccc2F)ccc1Br
  ?	-1%
40. C(#Cc1ccccc1)Cn1nnc2ccccc21
  -23%	2%
41. COc1ccccc1CCNC(=O)c1ccoc1C
  -25%	-2%
42. CC(C)(C)S(=O)(=O)c1cnc(N2CCOCC2)nc1N
  3%	-9%
43. CCCCOc1ccc(NC(=O)CSc2ccc(C(=O)O)cn2)cc1
  -2%	1%
44. O=C(Nc1ccc(Cl)cc1)NC1CCCc2ccccc21 (stereo unspecified)
  ?	4%
45. Cc1nc(CC(=O)c2ccc(O)cc2O)cs1
  14%	1%
46. CCCOc1ccc(C(=O)N/N=C/c2c[nH]c3ccc(Br)cc23)cc1
  -24%	-8%
47. Cc1ccc(C(=O)NCCNC(=O)COc2ccc(Cl)cc2)cn1
  9%	-3%
48. Cc1cc(C)cc(NC(=O)Nc2ccc(S(=O)(=O)Nc3cc(C)on3)cc2)c1
  -7%	-13%
49. O=C(N/N=C/c1ccccc1C(F)(F)F)c1ccc(O)cc1
  1%	-6%
50. O=S(=O)(Nc1ccc(-c2ccc3nncn3n2)cc1)c1cccs1
  2%	-14%
51. CC(C)CCN1CC(O)=C(c2nc3ccccc3[nH]2)C1=N
  1%	-2%
52. CC1CCCN(C(=O)COC(=O)c2cc(-c3cccs3)nn2-c2ccccc2)C1 (stereo unspecified)
  4%	-12%
53. CCN(CC)S(=O)(=O)c1ccc(C(=O)NCC(=O)NC2CC2)cc1
  5%	4%
54. CS(=O)(=O)c1ccc([C@@H](O)[C@@H](CO)NC(=O)C(Cl)Cl)cc1
  5.8µM*	-12%
55. Cc1nn(C)c(Cl)c1CN1CCN(C2CCCCC2)C(CCO)C1 (stereo unspecified)
  -2%	-4%
56. Cc1onc(-c2ccccc2Cl)c1C(=O)Nc1ccc(-c2nnc3n2CCCCC3)cc1
  ?	-13%
57. COC(=O)c1sc(SC)nc1N
  2%	-1%
58. CC(C)(C)OC(=O)N1CCC(c2c(C(=O)Nc3ccc4c(c3)OCCO4)cnn2-c2ccc(Cl)cc2)CC1
  ?	40%
59. O=C(CN1C(=O)COc2ccccc21)NCC1CCCO1 (stereo unspecified)
  -1%	-5%
60. O=C(Nc1ccccc1)N1CCN(c2ccccn2)CC1
  -10%	18%

# New compounds follow:
# Below each compound – DT40 TDP1 CPT	GCN5L2 inh
61. Cc1cccc(NC(=O)c2ccc(NCCO)c([N+](=O)[O-])c2)n1
  2%	-5%
62. COc1ccc(OCC(=O)Nc2c(Cl)ccc3nsnc23)cc1
  ?	-7%
63. O=C(NCC(=O)N1CCN(c2ccccc2F)CC1)c1cccs1
  5%	-3%
64. COC(=O)c1ccccc1NC(=O)N1CCCC1
  -9%	-9%
65. COC(=O)c1cc(C)nc(Sc2ccccc2NC(C)=O)n1
  19%	-26%
66. O=C(NCc1ccccc1)c1ccc(Oc2ccc(C(=O)NCc3ccccc3)cc2)cc1
  ?	-6%
67. Cc1cc(-c2nnc(CCC(=O)N(CC3CC3)CC3CCCO3)o2)no1 (stereo unspecified)
  10%	-9%
68. CC(=O)C1=NOC2C(=O)N(c3ccccc3)C(=O)C12 (stereo unspecified)
  -15%	-2%
69. CCN(CC)C(=O)C(=O)N/N=C/c1ccc(Br)cc1
  0%	-4%
70. O=C(CSc1nc2c(cnn2-c2ccccc2)c(=O)[nH]1)NC1CCS(=O)(=O)C1 (stereo unspecified)
  -13%	5%
71. CCOC(=O)Cc1c(C)nc2c(-c3ccccc3OC)c(C)nn2c1C
  -27%	?
72. CC(C)CCNC(=O)c1ccc(Cn2c(SCC(=O)NC(C)C)nc3ccccc3c2=O)cc1
  ?	-8%
73. c1ccc(Cn2ncc3ccccc32)cc1
  0%	0%
74. Cc1ccc(-n2c(C)cc(=O)cc2C)c(C)c1
  -14%	1%
75. COc1ccc(CN(C(=O)c2cccs2)c2ccccc2C(=O)O)cc1
  -14%	-4%

# Full records, quoted from the list:
# Cc1cc(-c2nnc(CCC(=O)N(CC3CC3)CC3CCCO3)o2)no1 (stereo unspecified) is listed as DT40 TDP1 CPT = 10%; GCN5L2 inh = -9%
# CCN(CC)C(=O)C(=O)N/N=C/c1ccc(Br)cc1 is listed as DT40 TDP1 CPT = 0%; GCN5L2 inh = -4%
# CC(=O)C1=NOC2C(=O)N(c3ccccc3)C(=O)C12 (stereo unspecified) is listed as DT40 TDP1 CPT = -15%; GCN5L2 inh = -2%

# Further records
# Below each compound – DT40 TDP1 CPT	GCN5L2 inh
76. COC(=O)c1cc(NC(=O)Cn2c(=O)cnc3ccccc32)cc(C(=O)OC)c1
  -3%	-1%
77. CC(C)(C)n1nnnc1C(c1ccccc1F)N1CCN(C(=O)c2ccco2)CC1 (stereo unspecified)
  2%	-4%
78. Cc1ccc(N=CC2=C(O)CC(c3cccc(Cl)c3)CC2=O)cc1 (stereo unspecified)
  -14%	1%
79. COc1cccc(OCCn2ccnc2)c1
  ?	4%
80. COc1cc(NC(=O)CCc2c(C)nn(-c3ccc(N4CCCCC4)nn3)c2C)cc(OC)c1OC
  21µM*	0%
81. Cc1noc(C)c1COc1ccc(C(=O)OCC(=O)Nc2ccc(S(N)(=O)=O)cc2)cc1
  ?	-4%
82. O=C1CC(c2ccc(F)cc2)c2c(n3c(nc4ccccc43)[nH]c2=O)N1 (stereo unspecified)
  4%	5%
83. COc1cc(Br)cc(/C=C/c2ccc3cccc(O)c3n2)c1OC
  ?	-2%
84. CNS(=O)(=O)c1cn(CC(=O)N2CCN(c3ccc(C(C)=O)cc3)CC2)cc1S(=O)(=O)NC
  -25%	-9%
85. O=C1CC(c2ccccc2)Sc2nc3ccccc3n21 (stereo unspecified)
  -10%	-2%
86. CCCn1nc(C(=O)Nc2ccc3c(c2)OCO3)c2ccccc2c1=O
  -24%	-8%
87. COc1ccc(NC(=O)c2ccc(F)c(F)c2)c2ccccc12
  -24%	-5%
88. COc1cc(Cl)c(C)cc1NC(=O)COC(=O)CCc1nc2ccccc2c(=O)[nH]1
  -23%	0%
89. O=C1NC(NS(=O)(=O)c2ccccc2)(C(F)(F)F)C(=O)N1Cc1cccnc1 (stereo unspecified)
  -8%	3%
90. O=C(NCc1ccccc1C(F)(F)F)C1CC(c2cccc(F)c2)=NO1 (stereo unspecified)
  -1%	2%
91. CS(=O)(=O)c1ccc(C(=O)N2CCc3ccccc3C2)cc1
  18%	-5%
92. O=C(Nc1ccc(F)cc1)c1cccc2c1C(=O)N(CC1CCCO1)C2 (stereo unspecified)
  -10%	-5%
93. CCNc1nc(SCC(N)=O)nc2sc3c(c12)CCN(C)C3
  ?	-6%
94. COc1ccc2c(c1)c(=O)c(C(=O)c1ccc(C)cc1)cn2CC(=O)Nc1ccc(F)cc1
  ?	-2%
95. Cc1ccc(C(=O)Nc2c(C)n(C)n(-c3ccccc3)c2=O)cc1
  -7%	-15%
96. Cc1ccc(S(=O)(=O)NC(=O)c2cc(C)n(-c3ccccc3)c2C)cc1
  -24%	-8%
97. O=C(CCCn1c(=S)[nH]c2ccc(Br)cc2c1=O)NCc1ccccn1
  ?	-8%
98. CC(C)(C)NC(=S)NNC(=O)c1ccc2ncccc2c1
  -13%	-3%
99. CSc1nc(NS(=O)(=O)c2cc(C)c(Cl)cc2Cl)nn1C
  -22%	-2%
100. COc1ccc(N(C(=O)c2ccco2)C(C(=O)NC2CCCC2)c2cccs2)cc1 (stereo unspecified)
  1%	17%
101. Cc1ccc(-n2nc3c(N4CCC(C(=O)NC5CCCCC5)CC4)nnc(C)c3c2C)cc1
  ?	3%
102. COC(=O)CN(n1cnnc1)S(=O)(=O)c1ccc(C)cc1
  -17%	-3%
103. Cc1cc(Oc2ccc(=O)[nH]n2)nc(Cl)n1
  -15%	-1%
104. COc1ccc(S(=O)(=O)N(C)c2ccc(C(=O)N3CCN(c4ccccc4)CC3)cc2)cc1OC
  15µM*	-28%
105. CCOC(=O)NC(=S)c1ccc[nH]1
  -18%	-2%
106. CCOC(=O)c1[nH]c(COC(=O)c2ccccc2NC(=O)c2ccco2)c(C(=O)OCC)c1C
  3%	-5%
107. COCCC(=O)N1CCC(Oc2ccc(C(=O)NCc3cccc(C)n3)cc2)CC1
  4%	-10%
108. CCNCc1cc2cc(C)ccc2[nH]c1=O
  18µM*	0%
109. CCn1c(SCC(=O)Nc2ccc(OC)c(OC)c2)nnc1-c1cnccn1
  4%	-2%
110. Cc1ccc(S(=O)(=O)C2CCCCC2=O)cc1 (stereo unspecified)
  11%	-4%
111. Cc1cc(C(=O)COC(=O)c2ccc(O)cc2)c(C)n1Cc1ccco1
  ?	-6%
112. COc1ccc(-c2csc(Cc3nnc4n3CCCCC4)n2)cc1OC
  3%	-7%
113. CCOc1ccc(/C=C2\SC(=S)N(NS(=O)(=O)c3ccccc3)C2=O)cc1OC
  -3%	-9%
114. CC(=O)c1cc2c(cc1NC(=O)C1CC=CCC1C(=O)O)OCO2 (stereo unspecified)
  -16%	2%
115. O=C1COc2ccc(S(=O)(=O)NCc3ccccc3)cc2N1
  -3%	0%

# Screening results (PubChem BioAssay)

# These rows are one share of the data, and most or all hits are left out here.
